Screening data (PubChem BioAssay)
miR-21 FLuc – miR-21 reporter, rising signal | HeLa miR-21 FLuc reporter, luciferase, 48 h | Potency, µM (highest dose often 38.3 µM), for the others: top-dose reporter change, positive = more light | 340,000 tested, under 10 active | AID 2288; active = well fitted rising curve with a large enough effect; inconclusive = small, poorly fitted or top-dose-only effect; inactive = no such curve, though single readings can be large or run the other way;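 further: % of control where 0% means no effect; miR-21 action dims this reporter so a rising signal means less miR-21 action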
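Luminescence from a firefly luciferase reporter carrying a miR-21 binding site downstream, stably expressed under a CMV promoter in HeLa cells that make miR-21 endogenously, reports miRNA modulation after 48 h compound exposure up to approximately 40uM final.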
* = called active by the depositor; ? = inconclusive. Only part of the results is shown, so the mix of outcomes need not match the whole.

| miR-21 FLuc | molecule |
| --- | --- |
| -55% | c1ccc(-c2cc3ncc4c(n3n2)-c2ccccc2OC4)cc1 |
| -3% | COc1cccc(-c2nc(CSCC(=O)NCCc3ccc(Cl)cc3)c(C)o2)c1 |
| -2% | O=C(COc1ccccc1-c1nnc(-c2ccccc2)o1)Nc1ccc(Br)cc1F |
| 3% | O=C(CN1C(=O)S/C(=C\c2ccc(-c3cc(C(=O)O)ccc3Cl)o2)C1=O)Nc1ccc2c(c1)OCO2 |
| -15% | CCOc1ccc(CNCc2c(C(=O)O)c(C)n(Cc3c(F)cccc3Cl)c2C)cc1OC |
| 23% | CCn1cc2nc(SCc3cccc(C(F)(F)F)c3)n(Cc3ccc(C)cc3)c(=O)c2n1 |
| 7% | Cc1ccc(CNC(=O)c2ccc(N3Cc4ccccc4Oc4ncccc43)s2)cc1 |
| -2% | COc1ccc(NC(=O)CSC2=Nc3ccccc3C3=NC(CCC(=O)NC4CCCCC4)C(=O)N23)cc1 (stereo unspecified) |
| -11% | CC(=O)Nc1ccc(C(=O)CSc2nnc3ccc4ccccc4n23)cc1 |
| 0% | CCOC(=O)c1ccc(NC(=O)C2=C(C)C(=O)OC23CCN(C(C)=O)CC3)cc1 |
| -26% | Cc1cc(C)cc(-n2nnc(-c3nc(-c4ccccc4F)no3)c2C)c1 |
| -6% | CCOC(=O)C1=C(C)N=c2s/c(=C/c3ccc(OCC(=O)O)cc3)c(=O)n2C1c1ccc(SC)cc1 (stereo unspecified) |
| 19% | CCOC(=O)c1cc(-c2ccc(OC)cc2)n(CCC(=O)Nc2ccc(OC)cc2OC)c1C |
| 1% | Cc1ccc(CCNC(=O)C2CC(=O)N(CCc3ccc(C)cc3)C2)cc1 (stereo unspecified) |
| 20% | CCn1c(=O)cc(OCC(=O)NCc2ccccc2OC)c2ccccc21 |
| 3% | O=C(CCC(=O)N1Cc2ccccc2Oc2ncccc21)NCc1cccc(Cl)c1 |
| 1% | COc1cccc(-c2ncnn2-c2sc3c(c2C#N)CCCCC3)c1OC |
| -4% | CCOc1ccc(N(C(=O)Cn2nnc3ccccc32)C(C(=O)NCc2ccccc2)c2ccc(OC)cc2)cc1 (stereo unspecified) |
| 4% | CCOC(=O)Cn1c(=O)n(CC2CCCO2)c2nc(-c3cc(OC)ccc3OC)nc(C(N)=O)c21 (stereo unspecified) |
| -3% | CCN(CC)C(=O)Cn1cc(SCC(=O)Nc2ccc(C)cc2)c2ccccc21 |
| -5% | Cc1nc2nncn2c(Nc2ccc(F)cc2)c1C |
| -1% | COc1ccc2c(c1)c(N1CCCC1=O)c(C(=O)Nc1cc(C)c(Cl)cc1OC)n2C |
| -8% | Cc1cc(=O)oc2cc(OCC(=O)Nc3c(C(C)C)cccc3C(C)C)ccc12 |
| 2% | COc1ccc(-c2noc(N(c3ccc(F)c(Cl)c3)c3nc(-c4ccc(OC)c(OC)c4)no3)n2)cc1OC |
| 4% | CCC(=O)N1CCc2cc(Br)cc(S(=O)(=O)CCC(=O)Nc3cccc(Cl)c3)c21 |
| ? | Cc1cccc(NC(=O)c2c(NC(=O)C(F)(F)F)sc3c2CCCCC3)c1 |
| -1% | COC(=O)c1ccc2c(c1)sc(=NC(=O)c1ccc(S(=O)(=O)N3CCCCC3)cc1)n2C |
| 7% | CCOc1ccc(CCNC(=O)c2ccc3c(c2)c(C)c(C)n3Cc2ccccc2)cc1OCC |
| 0% | Cc1ccc(NC(=O)c2cc(C)nc3c2c(C)nn3-c2cccc(Cl)c2C)c(C)c1 |
| -4% | O=C(Nc1cccc(-c2nc3ccccc3o2)c1)c1ccc(-c2ccc(Br)cc2)o1 |
| 10% | Cc1ccc(Sc2ccc(N3CCCC(C(=O)Nc4ccc(Cl)cc4)C3)nn2)cc1 (stereo unspecified) |
| -11% | Cc1cccc(CNS(=O)(=O)c2ccc3[nH]c(=O)ccc3c2)c1 |
| 2% | Cc1c(Cl)cccc1NC(=O)CCS(=O)(=O)c1ccc2c(c1)CC(=O)N2C |
| 9% | CCCn1c(SCc2nc(-c3cc(OC)ccc3OC)no2)nnc1-c1ccc(Cl)cc1 |
| ? | O=C(c1ccc(CS(=O)c2ccccc2Cl)o1)N1CCN(c2cccc(Cl)c2)CC1 (stereo unspecified) |
| -5% | CCOC(=O)c1ccc(NC(=O)CN2Cc3ccccc3C2=O)cc1 |
| -2% | Fc1ccc(-c2ccc(CNCCSc3nnnn3-c3ccccc3)o2)cc1 |
| 14% | CCc1ccc(CNC(=O)C2CCCN(S(=O)(=O)c3ccc4c(ccn4C)c3)C2)cc1 (stereo unspecified) |
| -52% | CC(C)(C)C1CCc2nc(NC(=O)Cc3ccc(Cl)cc3)sc2C1 (stereo unspecified) |
| -33% | Cc1nn(C)c2c1c(-c1ccccc1)cc(=O)n2CC(=O)NC(C)C |
| 6% | CCOC(=O)c1cc2c(=O)n3ccccc3nc2n(CC2CCCO2)c1=NC(=O)c1ccccc1F (stereo unspecified) |
| -20% | CC(=O)Nc1ccc(NC(=O)c2cc(-c3ccc4c(c3)OCCO4)on2)cc1 |
| -4% | Cc1c(Cl)cccc1NC(=O)Cn1c(=O)nc(-c2ccccc2)c2ccccc21 |
| 4% | CCCCNS(=O)(=O)c1ccc2nc(-c3cccnc3)cc(C(=O)NCCC)c2c1 |
| -4% | Cc1ccc(NC(=O)c2cn3c4c(ccc(Cl)c4c2=O)OC(C)C3)cc1C (stereo unspecified) |
| -2% | Cc1cccn2c(=O)c(C(=O)NC(C)c3ccccc3)cnc12 (stereo unspecified) |
| -2% | O=C(CSc1nc2c([nH]c3ccccc32)c(=O)n1-c1ccccc1)N1CCCC1 |
| 0% | CCCCc1ccc(C(=O)N/C(=C\c2ccc(C)cc2)C(=O)NC2CCCCC2)cc1 |
| -9% | COc1cccc(CNC(=O)CCc2c(C)c3cc4c(C)coc4c(C)c3oc2=O)c1 |
| 5% | Cc1ccc(C)c(NC(=O)CSC2=Nc3ccccc3N=C(c3ccc(F)cc3)C2)c1 |

Retrieved by compound from the list above (5):
| miR-21 FLuc | molecule |
| --- | --- |
| -5% | CCOC(=O)c1ccc(NC(=O)CN2Cc3ccccc3C2=O)cc1 |
| 9% | CCCn1c(SCc2nc(-c3cc(OC)ccc3OC)no2)nnc1-c1ccc(Cl)cc1 |
| -11% | Cc1cccc(CNS(=O)(=O)c2ccc3[nH]c(=O)ccc3c2)c1 |
| -4% | O=C(Nc1cccc(-c2nc3ccccc3o2)c1)c1ccc(-c2ccc(Br)cc2)o1 |
| ? | Cc1cccc(NC(=O)c2c(NC(=O)C(F)(F)F)sc3c2CCCCC3)c1 |

Further records.
| miR-21 FLuc | molecule |
| --- | --- |
| -4% | Cn1cccc1-c1cc2n(n1)CCC(=O)N2CCCC(=O)NCc1ccc(F)cc1 |
| -4% | CCCSCCCNC(=O)C1CCN(c2nn3cc(-c4ccc(F)cc4)nc3s2)CC1 |
| -10% | CCOC(=O)NC1(C(F)(F)F)NC(=O)N(c2ccc(C)c(C)c2)C1=O (stereo unspecified) |
| ? | O=C(Nc1ccc(F)cc1)C1CCN(S(=O)(=O)c2ccc3c(c2)CCCN3C(=O)C2CCC2)CC1 |
| ? | Cc1cc(C)cc(NS(=O)(=O)c2ccc(-c3cc(C)no3)cc2)c1 |
| -3% | CCC(=O)Nc1ccccc1-c1nc2ccccc2n(C(CC)C(=O)Nc2cccc(C(C)=O)c2)c1=O (stereo unspecified) |
| -5% | CC1CCN(c2ccc(-c3cccc(NS(=O)(=O)c4ccc(Cl)s4)c3)nn2)CC1 |
| 5% | CCCC12CN3CC(C)(CN(C1)C3c1cn(CC)c3ccccc13)C2=O (stereo unspecified) |
| -29% | Cc1ccc(-n2ncc3c(NCCc4ccc(S(N)(=O)=O)cc4)ncnc32)cc1 |
| -8% | COc1ccc(-c2cc3ccc(O)c(CN4CCCC(C)C4)c3oc2=O)cc1OC (stereo unspecified) |
| -2% | O=C(CCc1nnc2n(Cc3ccccc3Cl)c(=O)c3ccccc3n12)Nc1ccc(F)cc1 |
| -1% | CCN(c1ccccc1)S(=O)(=O)c1ccc(NC(=O)c2cc(=O)c3cc(C)cc(C)c3o2)cc1 |
| 10% | COc1ccc(-c2cn3nc(N4CCCC(C(=O)NCc5ccccc5C)C4)sc3n2)cc1 (stereo unspecified) |
| -4% | CCCN1CCN(CCCNC(=O)c2cnn(-c3ccc(F)cc3)c2-n2cccc2)CC1 |
| -9% | O=C(c1cc2ccccc2oc1=O)N1CCN(c2ccc(F)cc2)CC1 |
| 2% | COc1ccc(NC(=O)Cn2ccn(-c3ccccc3)c(=O)c2=O)cc1 |
| ? | Cc1ccc(CNC(=O)c2c(Nc3ccccc3C)sc(C(=O)c3ccc(F)cc3)c2N)cc1 |
| 6% | COc1ccc(-n2c(=O)c3ccccc3n(CC(=O)NCCc3ccccc3)c2=O)c(OC)c1 |
| 10% | COc1ccccc1CNC(=O)CCC1N=C2c3ccccc3N=C(SCC(=O)Nc3ccc(N(C)C)cc3)N2C1=O (stereo unspecified) |
| 1% | Cc1cc(C)n(C(C)CC(=O)Nc2ccc(Cl)cc2C)n1 (stereo unspecified) |
| 0% | O=C(Nc1ccc(F)cc1F)c1ccc(-n2cnc3cccnc32)cc1 |
| -2% | Cc1cc(C)c(NC(=O)Nc2csc3c2CCCC3)c(C)c1 |
| -8% | CCOC(=O)c1cccc(NC(=O)Cn2c(=O)c3cccn3c3ccccc32)c1 |
| -15% | Cc1cn2c(=O)cc(COc3cccc(NC(=O)c4ccccc4Cl)c3)nc2s1 |
| -1% | COc1ccc(Nc2ncc3c(n2)CCN(Cc2ccc(Br)s2)C3)c(OC)c1 |
| 3% | COc1ccc2nc(NS(=O)(=O)c3ccc(C)cc3)c(Nc3cc(Cl)ccc3OC)nc2c1 |
| -1% | Cc1ccc(NC(=O)c2oc3ccccc3c2NC(=O)c2ccc(F)c(F)c2)cc1 |
| -2% | COc1ccc(Br)cc1C(=O)Nc1cccc2ccc(C)nc12 |
| 0% | CCn1cc(S(=O)(=O)c2cc(C)cc(C)c2)c(=O)c2cc(F)c(N3CCC(C)CC3)cc21 |
| 29% | CCOc1ccccc1C(=O)NCc1ccc2c(c1)CCN2C(=O)c1ccc(F)cc1 |
| 4% | Cc1ccc(CSc2oc(-c3ccco3)nc2S(=O)(=O)c2ccc(C)cc2)cc1 |
| -51% | COc1ccc(C(=O)Nc2ccc3oc(-c4ccc(OC)cc4)nc3c2)cc1 |
| -41% | Cc1c(NC(=O)c2ccc(-c3cccc([N+](=O)[O-])c3)o2)cccc1-c1nc2cc(Cl)ccc2o1 |
| 26% | CCOc1ccccc1NC(=O)Nc1ccc2nc(N3CCN(C)CC3)cc(C)c2c1 |
| -1% | O=C(Nc1nc2nc(-c3ccccc3)cc(=O)n2[nH]1)c1ccc(F)cc1 |
| 1% | Cc1ccc(NC(=O)c2cnc(SCC(=O)Nc3cc(C)on3)n(C)c2=O)cc1 |
| 7% | Cc1cccc(NC(=O)Cn2c(=O)oc3cc(S(=O)(=O)NC4CCCC4)ccc32)c1 |
| -8% | CCNc1nc(Oc2ccc(OCC(=O)OC)nn2)nc(N2CCOCC2)n1 |
| -2% | CCOC(=O)CC(=O)CSc1nc2ccccc2c(=O)n1CCc1ccccc1 |
| -2% | CCCC(CCC)C(=O)Nc1cc(-c2cn3cccnc3n2)ccc1OC |
| 13% | Cc1cc(C)cc(NS(=O)(=O)c2ccc3[nH]cc(C(=O)NCCc4ccccc4)c(=O)c3c2)c1 |
| 17% | Cc1ccc(Cn2c(CO)cnc2SCc2ccc(F)cc2)cc1 |
| -45% | O=C(Nc1ccc(Br)cc1F)c1ccc2nc(CCc3ccccc3)oc2c1 |
| 3% | CCC(=O)N1CCc2cc(S(=O)(=O)NC(Cc3ccccc3)C(=O)NCc3ccccc3OC)ccc21 (stereo unspecified) |
| -11% | Cc1ccc(C)c(NC(=O)C2CCCN(c3nc4ccccc4s3)C2)c1 (stereo unspecified) |
| 11% | COC(=O)c1sc2c(c1C)c(=O)n(-c1ccccc1)c(=O)n2CC(=O)Nc1cccc(C)c1 |
| -2% | Cc1ccc(NC2(c3ccccc3)C(=O)c3ccccc3C2=O)cc1F |
| -2% | COc1ccccc1Nc1nn2c(=O)c3ccc(C(=O)NCc4cccnc4)cc3nc2s1 |
| 8% | CN(C)c1ccc(CNC(=O)c2cccc(NC(=O)N3CCSc4ncccc43)c2)cc1 |
| -7% | CCOc1ccc(NC(=O)c2ccc(-c3cccc(Cl)c3C)o2)cc1 |

In another format: entries from further up
CCNc1nc(Oc2ccc(OCC(=O)OC)nn2)nc(N2CCOCC2)n1
  miR-21 FLuc: -8%
CCOC(=O)CC(=O)CSc1nc2ccccc2c(=O)n1CCc1ccccc1
  miR-21 FLuc: -2%

Remaining list, next part.
| miR-21 FLuc | molecule |
| --- | --- |
| 8% | Cc1cccc(C(=O)Nc2ccc3oc(-c4ccncc4)nc3c2)c1 |
| 6% | Cc1cccc(NC(=O)C2CCN(S(=O)(=O)c3cccc4nsnc34)CC2)c1C |
| 2% | Cc1ccc2[nH]c3c(=O)n(CC(=O)N4CCN(c5ccccc5F)CC4)ncc3c2c1 |
| -5% | CCOc1ccccc1NC(=O)c1c(NC(=O)COc2ccccc2)sc2c1CCCCC2 |
| -2% | CC(C)CCN(C(=O)Nc1ccc(Cl)c(Cl)c1)C(C)c1cccs1 (stereo unspecified) |
| 9% | COc1ccc2cc(CNc3ccc(OC)c(OC)c3)c(=O)n(CC(=O)Nc3ccccc3F)c2c1 |
| 5% | COc1ccc(NC(=O)CC2C(=O)N(c3ccc(C)cc3)C(=O)N2C2CCCC2)cc1 (stereo unspecified) |
| ? | CC(C)(CC(=O)NCc1ccc(Cl)cc1Cl)CC1=NS(=O)(=O)c2ccccc2N1 |
| 0% | O=C(Cn1c(SCC(=O)Nc2ccc(F)cc2)nc2ccccc21)NCc1ccc(F)cc1 |
| -15% | Oc1c(C(c2ccccc2F)N2CCN(c3ccccc3F)CC2)sc2nc(-c3ccco3)nn12 (stereo unspecified) |
